Screens from PubChem BioAssay.
GIRK2 act: activators of human GIRK2 potassium channels. G protein-activated inward rectifier potassium channel 2 (Homo sapiens), P48051. HEK293-GIRK2 thallium flux, Thallos fluorescence. calls only for hits at 25 µM. 63,000 compounds, 0.05% hits;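 active means among the strongest 0.2% of first-round signals and kept after retests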;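 further: first round at about 10 µM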
Target sequence (P48051 whole entry, looked up): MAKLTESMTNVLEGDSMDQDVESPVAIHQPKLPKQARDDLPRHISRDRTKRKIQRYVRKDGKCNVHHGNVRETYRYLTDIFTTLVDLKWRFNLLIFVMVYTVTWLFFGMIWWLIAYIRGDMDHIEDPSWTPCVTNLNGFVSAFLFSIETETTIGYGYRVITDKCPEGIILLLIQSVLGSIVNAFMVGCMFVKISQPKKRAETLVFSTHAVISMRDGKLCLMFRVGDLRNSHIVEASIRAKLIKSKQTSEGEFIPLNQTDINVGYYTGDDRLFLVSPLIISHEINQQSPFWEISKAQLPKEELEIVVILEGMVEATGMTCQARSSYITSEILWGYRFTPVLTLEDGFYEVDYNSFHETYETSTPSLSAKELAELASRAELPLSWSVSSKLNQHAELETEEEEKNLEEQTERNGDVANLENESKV
Calls only; i = inactive.

no. | compound | GIRK2 act
1 | Cn1ccnc1SCC1CCN(C(=O)c2cc(=O)c3ccccc3o2)CC1 | i
2 | CSCC(C)(O)CNC(=O)c1ccc(Br)cc1 (centres undefined) | i
3 | CC(C)(C)c1ccc(NC(=O)NCCC(O)c2cccs2)cc1 (centres undefined) | i
4 | COc1cccc(S(=O)(=O)N2CC(C)CC(C)C2)c1 (centres undefined) | i
5 | CCOc1ccc(-c2noc(Cn3c(=O)n(Cc4ccco4)c(=O)c4ccccc43)n2)cc1 | i
6 | O=C(Nc1ccccc1OC(F)(F)F)C1CN(C(=O)c2ccc(F)c(F)c2)C1 | i
7 | CCCCC[C@H](O)/C=C/[C@H]1[C@@H](O)CC(=O)[C@@H]1CCCCCCC(=O)O | i
8 | CCc1nc2c(c(=O)c3ccccc3n2C)c(=O)n1-c1ccccc1 | i
9 | COc1ccc(N(C)S(=O)(=O)c2ccsc2-c2nc(-c3ccc(F)cc3)no2)cc1 | i
10 | Cn1nc(-c2ccc(F)cc2)cc1C(=O)NCC(O)c1ccc(C(F)(F)F)cc1 (centres undefined) | i
11 | O=C(NCCO)C(=O)Nc1ccc(OC(F)(F)F)cc1 | i
12 | C=C(C)COc1ccc(-c2nc(N)ncc2-c2ccc(Cl)cc2)c(O)c1 | i
13 | O=c1ccc(S(=O)(=O)N2CCCC2)cn1Cc1ccccc1F | i
14 | COCCN1CCC(NC(=O)COc2ccc(C(C)C)cc2)CC1 | i
15 | CC(NC(=O)c1sccc1N(C)S(=O)(=O)c1ccccc1)c1ccc(F)cc1 (centres undefined) | i
16 | Cc1ccc(S(=O)(=O)NCC(=O)Oc2ccccc2)cc1 | i
17 | COCCc1nnc(NC(=O)CCCc2ccccc2)o1 | i
18 | Cn1nnn(-c2ccc(NC(=O)Nc3ccc4c(c3)OCO4)cc2)c1=O | i
19 | CS(=O)(=O)N1CCN(C(=O)C2COCC(=O)N2Cc2cccs2)CC1 (centres undefined) | i
20 | O=C(NCC(F)(F)F)C(=O)NCC1(CO)CC1 | i
21 | O=C(Cc1ccccc1)Nc1nc2sc3c(c2c(=O)s1)CCCC3 | i
22 | COc1ccccc1-c1cc2nc(C)cc(N3CCN(C4CCCCC4)CC3)n2n1 | i
23 | O=C(CC1CCCC1)NCCC(O)c1ccoc1 (centres undefined) | i
24 | Cn1cnnc1SCc1cc(=O)c(OCC(=O)N2CCc3ccccc32)co1 | i
25 | CCOC(=O)CNC(=O)CN1CCC(c2cccs2)CC1 | i

In another format: entries from further up.
15: CC(NC(=O)c1sccc1N(C)S(=O)(=O)c1ccccc1)c1ccc(F)cc1 (centres undefined)
  GIRK2 act: i
10: Cn1nc(-c2ccc(F)cc2)cc1C(=O)NCC(O)c1ccc(C(F)(F)F)cc1 (centres undefined)
  GIRK2 act: i
23: O=C(CC1CCCC1)NCCC(O)c1ccoc1 (centres undefined)
  GIRK2 act: i

Remaining list, next part
no. | compound | GIRK2 act
26 | Cc1nc(-n2nc(-c3cccs3)cc2NC(=O)c2cccc(Cl)c2)[nH]c(=O)c1C | i
27 | N#Cc1ccsc1NC(=O)c1cc(-c2ccco2)on1 | i
28 | CCOC(=O)C1CCCN(C(=O)C2CSc3ncc(C)c(=O)n3C2)C1 (centres undefined) | i
29 | Cn1nc(C(=O)Nc2cccc3ccc(-n4cccc4)nc23)ccc1=O | i
30 | Cc1ccc(C)c(S(=O)(=O)NCC(=O)Nc2ccc(F)cc2)c1 | i
31 | CC(C)C(=O)Nc1ccc(S(=O)(=O)Nc2ccc3c(c2)C(=O)NCC3)cc1 | i
32 | O=C(Nc1nc(C(=O)NCc2nc(-c3ccccc3)no2)co1)c1ccsc1 | i
33 | CC(=O)NCCc1ccoc1 | i
34 | O=C(Nc1ccc(-n2ccnc2)nc1)c1cc2ccccc2oc1=O | i
35 | COC(=O)c1ccc(S(=O)(=O)N2CCN(c3nc4c(C(F)(F)F)cccc4s3)CC2)cc1 | i
36 | CCOC(=O)N1CCN(C2CC(=O)N(CCc3ccc(OC)c(OC)c3)C2=O)CC1 (centres undefined) | i
37 | CCn1c(-c2nonc2N)nc2ccc(F)cc21 | i
38 | CC(O)CN1CCN(C(=O)C2CCN(S(C)(=O)=O)CC2)CC1 (centres undefined) | i
39 | O=C(CSc1ccc(F)cc1)N1CC(c2nc(-c3ccc[nH]c3=O)no2)C1 | i
40 | O=C(Nc1ccc(F)c(Cl)c1)Nc1nccn(-c2ccc(F)cc2)c1=O | i
41 | COc1ccc(-c2noc(-c3cc4cc(Cl)ccc4oc3=O)n2)cc1 | i
42 | COc1ccc2cc(CNc3ccccc3)c(=O)n(CC(=O)Nc3ccccc3F)c2c1 | i
43 | Cc1c(C(=O)N2CCC(C(=O)Nc3nccs3)CC2)cnn1-c1ccccc1 | i
44 | CN1/C(=C(\C#N)c2nc3ccccc3s2)Sc2ccccc21 | i
45 | O=C(c1cc2n(n1)CCCO2)N1CCN(c2ncccn2)CC1 | i
46 | O=c1ccc(-c2ccc(Cl)cc2)nn1CCNS(=O)(=O)c1ccc(Oc2ccccc2)cc1 | i
47 | CC(=O)N1CCc2c(sc(NC(=O)C3=COCCO3)c2-c2nc3ccccc3s2)C1 | i
48 | COc1ccccc1OCC(=O)NCC(c1cccn1C)N1CCCCCC1 (centres undefined) | i
49 | CCCC(CCC)C(=O)O | i
50 | CC(C)(C)C(=O)Nc1ccc(C(=O)NCCN)cc1 | i
51 | Cc1ccc2c(=O)c(C(=O)N3CCSCC3)cn(CC(=O)NCc3ccccc3)c2n1 | i
52 | Nc1c(C(=O)c2ccccc2)sc2ncccc12 | i
53 | COC(=O)c1ccccc1N(C)C(=O)c1nnn(-c2ccc(Cl)cc2)n1 | i
54 | COc1ccc(OC)c(N2C=C(C#N)S(=O)(=O)c3ccc(F)cc32)c1 | i
55 | COc1ccc(C(C)NC(=O)c2sc3ncccc3c2-n2cccc2)cc1OC (centres undefined) | i
56 | COc1ccc(CC(=O)N2CCC(C(=O)NCc3nc(C)no3)CC2)cc1 | i
57 | CC(C)(C)CC(=O)Nc1ccc(N2CCCS2(=O)=O)cc1 | i
58 | COC(=O)c1sccc1S(=O)(=O)N1CC(c2nc3ccccc3[nH]2)C1 | i
59 | CCOc1ccccc1NCCN1N=C(C)C(C)n2c1nc1c2c(=O)n(C)c(=O)n1C (centres undefined) | i
60 | COc1ccc2nc(-n3nc(C)cc3NC(=O)Cc3ccc(F)cc3)sc2c1 | i
61 | O=C(NCCC(O)c1ccoc1)C(=O)NCc1cccs1 (centres undefined) | i
62 | COc1cc(S(=O)(=O)N2CCCCCC2)ccc1F | i
63 | COc1ccc2c(c1)C=C(C(=O)NCc1ccccc1)C=CO2 | i
64 | O=C(NCC#CCOc1ccc2c(c1)OCO2)C12CC3CC(CC(C3)C1)C2 | i
65 | CC(C)(C)c1cc(C(F)(F)F)c(C#N)c(SCCC(N)=O)n1 | i
66 | NC(=O)c1ccc(NC(=O)Cc2csc(Nc3cccc(Cl)c3)n2)cc1 | i
67 | O=C(Nc1cnc(N2CCCC2)nc1)Nc1ccc2c(c1)OCO2 | i
68 | COc1ccc(NC(=O)c2c(O)c3cnn(Cc4ccccc4)c3[nH]c2=O)cc1F | i
69 | Cn1cc(C2=C(c3cn(C)c4cc(N)ccc34)C(=O)NC2=O)c2ccccc21 | i
70 | CC1=C(C(N)=O)C(c2ccccc2OC(F)F)n2ncnc2N1 (centres undefined) | i
71 | CCCCCCCCCCCCCCCCCC(=O)N[C@H]1CCOC1=O | i
72 | COc1cc(-c2noc(Cn3cnc4c(nnn4Cc4ccccc4)c3=O)n2)cc(OC)c1OC | i
73 | O=C(CSc1nnc(CCc2nc3ccccc3[nH]2)o1)Nc1ccc(-n2cnnn2)cc1 | i
74 | COc1ccc(OC)c(-c2cc(C(=O)Nc3ccc4c(c3)CCC(=O)N4)[nH]n2)c1 | i
75 | CNC(=O)Cc1ccc(-n2c(=O)c3ccccc3n(CC(=O)NC3CCCCC3)c2=O)cc1 | i

(cont.)
no. | compound | GIRK2 act
76 | CCOc1ccc2ccccc2c1C(=O)Nc1ccc(-n2nnc(C(=O)N(C)C)n2)cc1 | i
77 | O=C(Cn1c(=O)oc2ccccc21)NCCn1nc(C2CC2)n(-c2ccccc2)c1=O | i
78 | C=CCSc1nc2c(c(=O)[nH]c(=O)n2C)n1CC(O)COc1ccccc1C (centres undefined) | i
79 | O=C(c1cc(-c2ccc(F)cc2)c[nH]1)N1CCOCC1 | i
80 | O=C(Cn1ncn2nc(-c3ccccc3)cc2c1=O)Nc1ccc2c(c1)OCCO2 | i
81 | Cc1c(Cl)cccc1NC(=O)CN1CCN(c2ccc(F)c(F)c2)C1=O | i
82 | O=C(Cn1cnc2c([nH]c3ccccc32)c1=O)NCc1ccc2c(c1)OCO2 | i
83 | COc1ccc(-n2c(C)nc3ccc(NC(=O)c4ccc(C(F)(F)F)cc4)cc3c2=O)cc1 | i
84 | COc1nn(C)cc1C(=O)NCC1CCN(Cc2ccccc2)CC1 | i
85 | Cc1nnc(NC(=O)c2ccc(-n3cccn3)nn2)s1 | i
86 | O=S(=O)(c1cccc(F)c1)N1CCC(c2nnc(C(F)(F)F)o2)CC1 | i
87 | COc1ccc(CNC(=O)CSc2nc3cc(-c4ccccc4)sc3c(=O)n2C)cc1 | i
88 | COCC(=O)NC1CCN(c2ccc(-c3ccccc3C)nn2)CC1 | i
89 | Cn1c(-c2ccccn2)nn(CCNC(=O)c2ccc(Cl)cc2Cl)c1=O | i
90 | COc1ccc(-c2noc(CSc3nc4cc5c(cc4c(=O)n3CC3CCCO3)OCO5)n2)cc1 (centres undefined) | i
91 | COc1ccc(CNC(=O)N2CCN(Cc3nnnn3-c3ccc(Cl)cc3)CC2)cc1OC | i
92 | CCc1cccc(C)c1NC(=O)Cn1nc2ccc(C(=O)NCc3ccccc3)cn2c1=O | i
93 | COc1ccc(S(=O)(=O)Nc2ccc3c(c2)N(S(=O)(=O)c2ccc(F)cc2)CCC3)cc1C | i
94 | CCC(CO)NCC(O)COc1cccc2ccccc12 (centres undefined) | i
95 | Cc1nn(C(=O)c2cc3ccccc3oc2=O)c(C)c1NC(=O)c1cc2ccccc2oc1=O | i
96 | COCCCn1c(SCc2nc(-c3ccc(OC(C)C)cc3)oc2C)nc2ccccc2c1=O | i
97 | C=CC1=C(C(=O)O)N2C(=O)[C@@H](NC(=O)/C(=N/OCC(=O)O)c3csc(N)n3)[C@H]2SC1 (stereo in doubt) | i
98 | COc1ccccc1Oc1coc2cc(OCc3ccc([N+](=O)[O-])cc3)ccc2c1=O | i
99 | O=C(CSc1nccn(-c2cccc(F)c2)c1=O)Nc1ccc(Cl)cc1F | i
100 | O=C(Nc1ccccc1Cl)N1CCC(Oc2nc3ccccc3s2)CC1 | i

Given as labelled records: two of the compounds above
94. CCC(CO)NCC(O)COc1cccc2ccccc12 (centres undefined)
  GIRK2 act = i
95. Cc1nn(C(=O)c2cc3ccccc3oc2=O)c(C)c1NC(=O)c1cc2ccccc2oc1=O
  GIRK2 act = i

Other structures.
no. | compound | GIRK2 act
101 | COCCn1c(=O)c2c(nc3n2CCCN3c2ccccc2C)n(C)c1=O | i
102 | Cc1ccc(S(=O)(=O)N(Cc2c(F)cccc2Cl)C(=O)N2CCN(C)CC2)cc1 | i
103 | COCCn1c(=O)c2c(nc3n2CCCN3c2ccc(C)cc2C)n(C)c1=O | i
104 | Cc1nc(N2C(=O)C(=O)C(=C(O)c3ccc(Cl)cc3)C2c2cccs2)sc1C (centres undefined) | i
105 | Cc1ccc(-c2noc(-c3cccn4c(=O)n(CC(=O)Nc5ccc(C)cc5Cl)nc34)n2)cc1 | i
106 | O=C(c1cc2ccccc2oc1=O)N1CC(c2nc(-c3ccncc3)no2)C1 | i
107 | COc1ccc(-c2noc(CSc3nc4[nH]ncc4c(=O)n3-c3ccc(F)c(F)c3)n2)cc1OC | i
108 | COc1cc(NC(=O)CSc2nc3cc(-c4ccccc4)sc3c(=O)n2C)cc(OC)c1OC | i
109 | CCOc1ccccc1NC(=O)Cn1cccc(-c2nc(-c3ccc(C)cc3)no2)c1=O | i
110 | COc1cccc(C2NC(=S)NC(C)=C2C(=O)Nc2ccc(F)cc2)c1 (centres undefined) | i
111 | O=C(Cn1c(=O)oc2ccccc21)Nc1cccc(-c2nc3ccccc3[nH]2)c1 | i
112 | COc1cccc(CC(=O)NCC2CCN(Cc3ccccc3)CC2)c1 | i
113 | O=C(Cc1ccc(F)cc1)Nc1nc(-c2cc3ccccc3o2)cs1 | i
114 | NC(=O)CSc1nc2[nH]ncc2c(=O)n1-c1ccccc1 | i
115 | Cc1ccc(-c2cc3c(SCC(=O)NCCc4cccs4)nccn3n2)cc1C | i
116 | COc1ccccc1N1CCN(CCNC(=O)C(=O)NC2CCCCC2)CC1 | i
117 | Cc1cc(C)c(NC(=O)Cn2nc3ccc(-c4ccc(C)c(C)c4)nn3c2=O)c(C)c1 | i
118 | COc1ccc(C(C)NC(=O)c2nnn(-c3ccccc3OC)c2C)cc1 (centres undefined) | i
119 | Cc1nnc(NC(=O)CN2CCC(c3nn(C)c(=O)n3-c3ccccc3)CC2)s1 | i
120 | CCOC(=O)c1ccc(NC(=O)CSc2nc(C)ccc2C#N)cc1 | i
121 | CCCn1c(=O)c2sc(N3CCCCC3)nc2n(CC(=O)NCc2ccc(C)cc2)c1=O | i
122 | C=C(C)C(=O)O[C@H]1[C@H]2C(=C)C(=O)O[C@@H]2C[C@@H](C)[C@@H]2O[C@@H]2C(=O)[C@](C)(O)[C@@H]1OC(C)=O | i
123 | COc1cccc2sc(N3CC(OC(=O)c4nc5ccccc5s4)C3)nc12 | i
124 | COc1ccccc1OCC#CCNC(=O)c1cnc2ccccc2n1 | i
125 | COC(=O)c1cc(OC)c(OC)cc1NC(=O)c1ccc2snnc2c1 | i

Overlap with the part before: two compounds; new compounds follow.
no. | compound | GIRK2 act
124 | COc1ccccc1OCC#CCNC(=O)c1cnc2ccccc2n1 | i
125 | COC(=O)c1cc(OC)c(OC)cc1NC(=O)c1ccc2snnc2c1 | i
126 | C=CCN1CCn2c1nc1c2c(=O)n(C)c(=O)n1C | i
127 | CC(C)c1ccc(NC(=O)C(=O)NCC2CCN(C3CCCC3)CC2)cc1 | i
128 | O=C(CNC(=O)c1c[nH]c2ccccc12)NCCCn1ccnc1 | i
129 | CN(C)CCN(C(=O)CCCS(=O)(=O)c1ccccc1)c1nc2c(F)cccc2s1 | i

This is a subset. The share of hits here may be higher or lower than overall.
